HIV TAR-Tat – HIV-1 TAR-Tat binding disruption | z-score (no concentration beside the values) | 100,000 compounds, 0.6% hits | HIV-1 TAR RNA, Tat peptide displacement FRET; active compounds read high;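 also: score is relative to mean and SD of negative controls; some compounds called inactive have numbers as strong as hits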
CDC25B-CDK2 inh – human CDC25B-CDK2/CyclinA binding inhibition. HTRF CDC25B-CDK2/CyclinA binding, anti-His/anti-Flag; active compounds read high. z-score (no concentration beside the values). AID 1259370. P30305+P24941. 94,000 compounds, 0.72% hits;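 also: score is relative to mean and SD of negative controls; strong numbers were not always called active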
An asterisk follows results filed as active; nt = no result given.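 The calls were made as follows: active = z-score from 3 up in half or more of its runs; inactive = the rest.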

SMILES	HIV TAR-Tat	CDC25B-CDK2 inh
Cc1cc2c(cc1S(=O)(=O)C(C)CC(=O)NC1CCCC(C)C1C)OCC(=O)N2 (centres undefined)	1.5	nt
CS(=O)(=O)c1nc(-c2ccccc2)cc(C(F)(F)F)n1	nt	-3.7
COc1ccc(-c2nc3ccc(Cl)cc3c(=O)o2)cc1	0.17	0.04
Cc1ccc2cc3c(nc2c1)N(S(=O)(=O)c1ccc(F)c(C)c1)CC3	-0.98	-2.1
COC(=O)CN1C(=O)CSc2ccc(S(=O)(=O)N3CCN(C)CC3)cc21	-0.22	nt
Cc1cc(C)c(NS(=O)(=O)c2ccc(-c3cc(C)[nH]n3)s2)c(C)c1	0.88	nt
O=C(COCc1cc(-c2cccs2)on1)N1CCN(c2ccc(F)cc2)CC1	1	nt
c1ccc(-c2nc(-c3cccnc3)[nH]c2-c2cccs2)cc1	0.29	-0.22
Cc1c(C(=O)NC2CCCCC2)c(C)n2cnn(CC(=O)NCCCN3CC(C)CC(C)C3)c(=O)c12 (centres undefined)	-0.65	-0.2
C=CCC1(NCCO)CCCCC1	nt	-3.9
O=c1[nH]c2ccccc2cc1CN(C1CCCCC1)S(=O)(=O)c1ccccc1	0.49	-1.5
CCCC(C(=O)O)N1Cc2ccccc2C1=O (centres undefined)	0.94	-1.3
O=C(Nc1ccc(OC(F)(F)F)cc1)N1CCCN(CCc2ccccc2)CC1	nt	1.1
O=C(O)C(Cc1ccccc1)NS(=O)(=O)c1cccc2cccnc12 (centres undefined)	2	nt
CC1(C)CC(=O)c2cn(-c3ccc(F)cc3)c(=O)c(C(=O)O)c2C1	-1.9	-2.3
Cc1ccc(N2C(=O)N(CC(=O)C(C)(C)C)c3ccccc3S2(=O)=O)cc1Cl	0.82	nt
O=C(CSc1ccc2nnc(-c3cccc(F)c3)n2n1)Nc1nccs1	nt	-0.53
C=CCN(Cc1nc(-c2ccc(OC)cc2)no1)S(=O)(=O)c1ccccc1	1.7	0.65
O=C1CC(c2ccccc2F)Cc2nc(N3CCN(c4ccccn4)CC3)ncc21 (centres undefined)	1.8	-1.1
CCCCC#Cc1ccc(C(=O)N/N=C/c2ccccc2)o1	nt	1.5
CCCC1c2ccc(C)n2CCN1C(=O)Nc1ccc(F)cc1F (centres undefined)	-9.3	-2.3
COc1ccc2oc(=O)c(-c3cn4cc(C)ccc4n3)cc2c1	nt	-4.1
O=C(Nc1ccc2c(c1)OCCO2)c1ccc(-c2ccccn2)s1	nt	-0.37
CCCn1c2ccccc2c2cnn(CC(=O)NCCCOC(C)C)c(=O)c21	0.27	nt
COc1ccc(OC)c(NC(=O)N2CC(C)Sc3ccccc32)c1 (centres undefined)	2.3	nt
Cc1ccc(-c2onc(C)c2C)cc1S(=O)(=O)N1CC=C(c2ccccc2)CC1	2.5	nt
Cc1cc2[nH]c(=O)[nH]c2cc1NS(=O)(=O)c1ccc2c(c1)CCCC2	-0.28	nt
COc1ccc(N2CCN(S(=O)(=O)c3cccc4nonc34)CC2)cc1	2	nt
CNC(=O)c1cc(Cl)c(NC(=O)C2=C(C)OCCS2)cc1OC	0.31	nt
COc1cc([N+](=O)[O-])cc(/C=N/NC(=O)Cn2nnc3ccccc32)c1O	nt	-2.8
Cc1ccc(CNCc2cccn2-c2nnc(N3CCOCC3)s2)cc1	-1.3	nt
CC1CCCCN1S(=O)(=O)c1cc(Br)cnc1N (centres undefined)	2.1	-0.84
CCN1CCCC1CNC(=O)Cn1c(-c2cccs2)cc2ccccc21 (centres undefined)	1.5	nt
COC(=O)c1c2n(c3ccc(C)cc3c1=O)C(=O)CS2	0	-0.54
CCOC(=O)CSc1nnc(-c2ccncc2)n1-c1ccccc1	nt	-1.4
CCOC(=O)c1c(S(=O)(=O)N2CCCC(C(=O)Nc3nc(C)cs3)C2)c(C)n(CC)c1C (centres undefined)	1.9	nt
COCc1cc(C)nc2sc3c(=O)n(-c4cccc(Br)c4)nnc3c12	0.05	-1.8
COCCNc1nc2c(-c3ccc(C)cc3)nnn2c2ccccc12	-0.18	0.01
O=C(c1c[nH]c2ccc(S(=O)(=O)N3CCOCC3)cc2c1=O)N1CCN(c2ccccn2)CC1	nt	-0.29
Cc1ccc2ncc(C(=O)N3c4ccccc4CC3C)c(=O)n2c1 (centres undefined)	0.1	-1.6
CC1=C(C(=O)OCC(C)C)C(c2cccs2)C2=C(CCCC2=O)N1 (centres undefined)	0.54	0.48
CC1=C(c2ccc(C)c(C)c2)S(=O)(=O)N=C1N1CCN(c2ccc(F)cc2)CC1	0.24	-1.2
Cc1nn(C(=O)CCC(=O)N2CCc3ccccc32)c2ccccc12	2	-1.9
Cc1ccccc1CNc1nc(N2CCN(Cc3ccccc3)CC2)nc2c1cnn2C	1.2	nt
Cc1cccc(-c2nc(Cn3c(=O)cc(C)c4c(C)nn(C)c43)c(C)o2)c1	-0.43	nt
Cc1ccnc(NC(=O)CCS(=O)(=O)c2cc3c(cc2C)NC(=O)CO3)c1	1.9	nt
Cc1cc(C)c(Cn2cccc2CNC(=O)Nc2cc(F)ccc2F)c(C)c1	-1.5	nt
O=C(O)c1cccc2c1NC(c1ccccc1F)C1C3CCC(C3)C21 (centres undefined)	-0.23	-1.5
Cc1ccc(-n2c(SCC(=O)N3CCCC3)nc3c(c2=O)SC(C)C3)cc1 (centres undefined)	1.2	-1.2
COc1ccc(NC(=O)Nc2nc3ccc(S(C)(=O)=O)cc3s2)c(OC)c1	2	-1.1
Additional results.
SMILES	HIV TAR-Tat	CDC25B-CDK2 inh
CN(C)c1ccc(C2C3=C(CC(C)(C)CC3=O)Nc3ccccc3N2C(=O)C2CC2)cc1 (centres undefined)	nt	-0.79
Cc1nnsc1C(=O)NC1CCCCNC1=O (centres undefined)	nt	-2
CCN1CCN(CCCNC(=O)c2cc3n(n2)CC(C)(C(=O)NC2CCCC2)N(C)C3=O)CC1 (centres undefined)	0.73	nt
Cc1cccc(C)c1NS(=O)(=O)c1ccc(-c2ccc(=O)[nH]n2)s1	-0.68	nt
Cc1oc(-c2ccccc2)nc1CSc1nnc(C)n2c1cc1sccc12	2.1	nt
c1ccc(-n2ncc3c2ncn2nc(CSc4nc5ccccc5o4)nc32)cc1	nt	-2.2
CC1(C)Cc2c(c(N3CCOCC3)nc3sc4c(NCCCO)ncnc4c23)CO1	1.6	0.06
CCCN1C(=O)C(O)(CC(=O)c2ccccc2)c2ccccc21 (centres undefined)	-1.4	0.53
COc1cc(-c2nc(-c3ccccc3)c(-c3cccs3)[nH]2)cc(OC)c1O	nt	0.89
CNC(=O)[C@H]1O[C@@H](n2cnc3c(NCc4cccc(I)c4)ncnc32)C(O)[C@H]1O (some centres undefined)	nt	-0.86
COc1ccc(C2=C(C)C(=NCCCN(Cc3ccccc3)C(C)C)NS2(=O)=O)cc1	-0.1	-1.8
CN(C)CCN1C(=O)C(=O)/C(=C(/O)c2ccccc2)C1c1ccc(N(C)C)cc1 (centres undefined)	2.5	-3.6
c1ccc(CNCc2cccn2-c2nnc(N3CCCCC3)s2)cc1	1.1	nt
COc1ccc(Cl)cc1NC(=O)COC(=O)CCCC1=NS(=O)(=O)c2ccccc2N1	2.4	nt
Cc1c(C(=O)NC(C)c2ccccc2)oc2ccc3c(c12)C(=O)CC1(CCCC1)O3 (centres undefined)	1.2	0.18
c1ccc(-c2noc(NCc3ccc4c(c3)OCO4)n2)cc1	-0.53	nt
O=C(Nc1ccc(OC(F)(F)F)cc1)Nc1cc(-c2ccco2)[nH]n1	nt	8.7
Cn1c(=O)c2c(SCC(=O)Nc3ccc4c(c3)OCO4)nc(-c3ccc(F)cc3)nc2n(C)c1=O	nt	-1.7
Cc1nn2c(=O)c(NC(=O)c3ccc(C(C)(C)C)cc3)cnc2s1	-1.8	-0.68
CC1CCCC(NC(=O)CCCn2sc3ccccc3c2=O)C1C (centres undefined)	2.1	-0.87
CN(C)c1ccc(C(=O)c2ccccc2)cc1	nt	0
CCOC(=O)C(Cc1ccc(O)cc1)NC(C)=O (centres undefined)	0.62	nt
CC(C)c1ccc(CNc2nc3nc4c(c(=O)n3[nH]2)CCC4)cc1	0.62	-0.37
CCCCSc1c(C)c2cc3c(cc2[nH]c1=O)OCO3	nt	-7.7
CCOc1ccc(/C=C/c2nc3ccccc3[nH]2)cc1	nt	-2.3
CC1CCCN(C(=O)Cn2c(-c3nonc3N)nc3ccccc32)C1 (centres undefined)	0.38	0.37
Cc1noc(C)c1S(=O)(=O)N1CCC(C(=O)N2CCOCC2)CC1	2.3	-1.9
Cc1cccc(Nc2nc3ccccc3n3cnnc23)c1C	-0.24	-1.6
CCOC(=O)c1c(C)n(-c2ccc(N(C)C)cc2)c2ccc(OC)cc12	1.1	-0.37
CN(C)C=Nc1ccc2nnc(-c3ccccc3)n2n1	nt	0.23
CC(CCc1ccccc1)NC(=O)c1cnc2ccccn2c1=O (centres undefined)	2.7	-1.5
CCNC(=O)N(C)Cc1nc(-c2ccc(Cl)cc2)no1	-0.03	-2.5
Nc1nc(-c2ccccc2)nn1C(=O)c1cccc2ccccc12	0.93	-0.12
COc1ccccc1NC(=O)N1c2ccccc2Sc2ccccc21	1.9	-2.2
CCCCOc1ccc(C2c3c(oc4ccccc4c3=O)C(=O)N2c2nnc(C)s2)cc1OC (centres undefined)	1.2	1.4
Cc1[nH]c2[nH]n(-c3ccccc3)c(=O)c2c(=O)c1Cc1ccc(C(C)C)cc1	1	-3
N#Cc1c(Cl)cccc1NCc1ccc(Cl)cc1	nt	-1.8
CCc1oc2cc(OCC(=O)OC)ccc2c(=O)c1-c1ccc2c(c1)OCCO2	nt	-0.72
O=C(NCCCN1CCCC1=O)Nc1cnc2ccccn2c1=O	-1.8	-2.4
CCc1ccc(Cc2cn3cc(-c4ccccc4)nc3s2)cc1	1.5	-2.2
Cc1cc(C)c2c(c1)-c1cc(C)nn1C(c1cccc(O)c1O)N2 (centres undefined)	0.78	-0.97
Cn1c(=O)c2cn(C(C)(C)C)cc2n(C)c1=O	1.8	-0.95
O=C(CCCn1c(=O)c2cccn2c2cccnc21)N1CCc2ccccc2C1	0.43	nt
Cn1cccc1Cc1nnc(SCC(=O)Nc2cccc(Cl)c2)n1-c1ccc(F)cc1	nt	-0.42
C=CCNC(NC(=O)OCC)(C(F)(F)F)C(F)(F)F	nt	0.42
COC(=O)C1=C(O)c2ccccc2S(=O)(=O)N1C	2.7	-1.1
Cc1cccc(C(=O)Nc2cc(F)c(Br)cc2F)c1C	nt	-1.5
CC(C)(CO)Nc1nc(N2CCOCC2)nc(N2CCOCC2)n1	nt	4.4
O=C(c1nnc(Cc2ccc3c(c2)OCO3)o1)N1CCCC1	0.5	-1.8
CC1(C)CCC(C)(C)c2cc(C3=NNC(O)(C(F)(F)F)C3)ccc21 (centres undefined)	nt	-1

3 entries from above, ordered by heavy-atom count, ascending:
SMILES	HIV TAR-Tat	CDC25B-CDK2 inh
COC(=O)C1=C(O)c2ccccc2S(=O)(=O)N1C	2.7	-1.1
C=CCNC(NC(=O)OCC)(C(F)(F)F)C(F)(F)F	nt	0.42
CC1(C)CCC(C)(C)c2cc(C3=NNC(O)(C(F)(F)F)C3)ccc21 (centres undefined)	nt	-1

(listing goes on)
SMILES	HIV TAR-Tat	CDC25B-CDK2 inh
O=C(Nc1ncc(Cc2ccccc2)s1)c1ccc2snnc2c1	-1	-1.6
Cn1c(=O)c(=O)n(C)c2cc(S(=O)(=O)CCC(=O)N3CCCCC3)ccc21	-0.58	0.95
CCC(C)NS(=O)(=O)c1ccc2c(c1)N(C(C)=O)CCS2 (centres undefined)	1.6	nt
O=C(O)c1cc2c([nH]c1=O)CCCC2	2.1	-1
CN(NC(=O)/C=C/C(=O)O)c1cc(C(F)(F)F)ccn1	nt	1.8
O=C(Oc1cc(Cl)cc(Cl)c1)c1ccccc1F	nt	-0.26
Cc1ccc(S(=O)(=O)N2CCN(c3c(C)n(C)c(=O)n(C)c3=O)CC2)c(C)c1	0.99	nt
Cc1nc(CC(=O)Nc2ccc(Br)cc2)cs1	-0.17	-1.7
O=C(O)c1c(C(F)(F)F)cc[nH]c1=O	nt	0.23
O=c1cnnc2sc(SCc3ccccc3Cl)nn12	2	-0.5

An excerpt from above in order of SMILES length, ascending.
SMILES	HIV TAR-Tat	CDC25B-CDK2 inh
O=C(O)c1cc2c([nH]c1=O)CCCC2	2.1	-1
O=C(O)c1c(C(F)(F)F)cc[nH]c1=O	nt	0.23
O=C(Oc1cc(Cl)cc(Cl)c1)c1ccccc1F	nt	-0.26
Cc1cccc(C(=O)Nc2cc(F)c(Br)cc2F)c1C	nt	-1.5
C=CCNC(NC(=O)OCC)(C(F)(F)F)C(F)(F)F	nt	0.42
O=C(c1nnc(Cc2ccc3c(c2)OCO3)o1)N1CCCC1	0.5	-1.8
CC(C)(CO)Nc1nc(N2CCOCC2)nc(N2CCOCC2)n1	nt	4.4
CN(NC(=O)/C=C/C(=O)O)c1cc(C(F)(F)F)ccn1	nt	1.8
CCC(C)NS(=O)(=O)c1ccc2c(c1)N(C(C)=O)CCS2 (centres undefined)	1.6	nt
O=C(CCCn1c(=O)c2cccn2c2cccnc21)N1CCc2ccccc2C1	0.43	nt
CC1(C)CCC(C)(C)c2cc(C3=NNC(O)(C(F)(F)F)C3)ccc21 (centres undefined)	nt	-1
Cn1cccc1Cc1nnc(SCC(=O)Nc2cccc(Cl)c2)n1-c1ccc(F)cc1	nt	-0.42
Cn1c(=O)c(=O)n(C)c2cc(S(=O)(=O)CCC(=O)N3CCCCC3)ccc21	-0.58	0.95
Cc1ccc(S(=O)(=O)N2CCN(c3c(C)n(C)c(=O)n(C)c3=O)CC2)c(C)c1	0.99	nt

Next part
SMILES	HIV TAR-Tat	CDC25B-CDK2 inh
Cc1ccc(S(=O)(=O)N2CCCC(C(=O)O)C2)s1 (centres undefined)	nt	0.57
N#Cc1cc(NC(=O)c2ccc(Cl)cc2)c(=O)n2c1[nH]c1ccccc12	-5.4	-0.76
O=C(Cn1c(=O)c2cccn2c2ccccc21)NCc1cccs1	0.3	nt
CC(O)CCc1nc2ccc(C(=O)O)cc2[nH]1 (centres undefined)	1.1	-0.36
CC1=C(C(=O)Nc2ccc(Br)cc2F)C2(CCC(C)CC2)OC1=O (centres undefined)	-0.01	-0.43
CC(=O)NC(CC(C)C)C(=O)N1CCNc2ccccc2C1 (centres undefined)	0.26	-1.3
Cc1nn(-c2ccccc2)c2c1C(=O)CC(C)(C)C2SC#N (centres undefined)	nt	-1.4
